# NPYLR7 ag: mosquito NPYLR7 agonism | hit rate 0.15% among 270,000 | HEK293T NPYLR7/Galpha15, GCaMP6s calcium fluorescence | activation, % at 10 µM; in the data active means activation above about 40%;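 further: 0% = vehicle and 100% = reference agonist at the receptor; some compounds past the cut are filed as inactive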
# NPYLR7 ag max-min: recorded beside NPYLR7 ag, whose call it bears; activation, %; measured here: Max-Min RFU normalised activation; some inactives read as strong as hits;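 span of the calcium signal over five minutes; 0% = vehicle and 100% = native peptide agonist; compound fluorescence can raise it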
# * = called active by the depositor; & = joins results of further samples. Only part of the results is shown; the hit share may differ from the screen's.
SMILES,NPYLR7 ag,NPYLR7 ag max-min
COc1cccc([C@@H](C)NC(=O)c2cn(CC(C)C)cc(C(=O)N3CCCCCC3)c2=O)c1,20,17
CSc1nc(N)c(NC(=O)c2ccccc2)c(=O)[nH]1,1,-6
Cc1ncoc1C(=O)N1CCc2onc(-c3ccc(-c4ccccc4)cc3)c2C1,5,1
O=C(C1CCN(S(=O)(=O)c2ccc(Cl)c(C(F)(F)F)c2)CC1)N1CCCCC1,1,0
CCOc1ccc(CNC(=O)C(=O)Nc2ccnn2C2CCCC2)cc1F,-2,-5
CCOc1ccc(CN2CCOC(c3ccc(F)cc3)C2)cc1CO (stereo not drawn),-2,-4
COc1ccc(C(=O)NCc2nnc(SCc3ccncc3)n2CC(C)C)cc1OC,20,12
COc1cccc(CNC2CC2)c1OCc1nc(CO)cs1,46*,40*
Cc1ccc(C(C)(C)NC2CCCNC2)cc1 (stereo not drawn),22,12
CCOC(=O)N1CCN(C(=O)CC(c2cccc(F)c2)c2cn(CC)c3ccccc23)CC1 (stereo not drawn),22,25
CCCCCN(Cc1nc(C(=O)OC)cs1)C(=O)Nc1ccccc1OCC,-2,6
COC(=O)C1CCN(C(=O)CCC2(Cc3ccc(SC)cc3)CCC(=O)N2)CC1 (stereo not drawn),17,11

# The final 3 records of the section above lead into the next:
SMILES,NPYLR7 ag,NPYLR7 ag max-min
CCOC(=O)N1CCN(C(=O)CC(c2cccc(F)c2)c2cn(CC)c3ccccc23)CC1 (stereo not drawn),22,25
CCCCCN(Cc1nc(C(=O)OC)cs1)C(=O)Nc1ccccc1OCC,-2,6
COC(=O)C1CCN(C(=O)CCC2(Cc3ccc(SC)cc3)CCC(=O)N2)CC1 (stereo not drawn),17,11
COc1ccc(CNC(=O)c2sc(=O)n(Cc3cccc(F)c3)c2C)cc1OC,5,1
COCc1ccccc1NS(=O)(=O)c1cc(Cl)ccc1C,3&5,3&2
O=C1CC(C(=O)N2CCCC(c3cc(=O)[nH]cn3)C2)C2(CCCC2)O1 (stereo not drawn),-2,-5
CC(c1cc2ccccc2o1)n1c(=S)[nH]c2ccccc2c1=O (stereo not drawn),2,0
Cc1[nH]n(-c2nc(-c3ccc(Br)cc3)cs2)c(=O)c1N=Nc1cccc(O)c1,3,2
CC(C)COc1ccc(C(C)(C)CNC(=O)c2n[nH]c(=O)[nH]2)cc1,8,6
C=CCn1c(C)cc(C(=O)CSc2ncnc3sc(C)c(C)c23)c1C,3,-1
COc1ccc(-c2n[nH]c(=S)n2-c2ccc(C)cc2)cc1OC,-7,-2
COc1ccc(C(CCN(Cc2ccc(N(C)C)cc2)C(C)=O)C2CCOC(C)(C)C2)cc1 (stereo not drawn),1,-8
CCCCn1c(=O)[nH]c(=O)c2c1ncn2Cc1ccco1,-19,-21
O=C(O)CNc1cccc(C(=O)N(CCO)Cc2ccccc2)c1,0,0
COc1ccc(C(=O)N2CCCC3(CCc4ccccc43)C2)c(OC)n1 (stereo not drawn),-2,6
CCN(CC(=O)Nc1cc(-c2ccccc2)nn1-c1ccc(F)cc1)C(=O)Nc1cccc(C(F)(F)F)c1,22,30
c1cc(-c2ccc(CN3CCOC4(CNCCOC4)C3)o2)[nH]n1 (stereo not drawn),5,1
COc1cc(OC)cc(-c2onc(C)c2C(=O)NCc2cccc(Cl)c2)c1,4,0
CCCCCOc1ccc(C(=O)NCc2ccco2)cc1OCCCCC,-8,-15
CC1C(=O)N(c2cccc(Br)c2)CCN1S(=O)(=O)c1ccccc1 (stereo not drawn),2,12
CN1C(=C2C=NN(C)P2(=O)N2CCOCC2)C(C)(C)c2ccccc21 (stereo not drawn),-2,-3
CC(C)Cc1n[nH]c(Cn2nc(Cc3ccccc3)c3ccccc3c2=O)n1,1,1
CCn1cc(NC(=O)N2CCOCC2)c2ccccc21,-2,0
N#Cc1ncn(CC(=O)Cc2c(F)cccc2Cl)n1,2,2
CCc1cccc(NC(=O)N(Cc2ccc(OC)c(OS(=O)(=O)CC)c2)CC(C)C)c1,-7,-7
O=C(CCN1CCN(Cc2ccc(Br)s2)CC1)Nc1ccc(F)c(F)c1,3,13
COc1cc(CN2CCSCC2)ccc1OCC(O)CN1CCCCCC1 (stereo not drawn),2,-3
Cc1cccc(C(C2Sc3nc(-c4ccco4)nn3C2=O)N2CCCCC2)c1 (stereo not drawn),1,-1
CN(C)CCNC(=O)c1ccc(CSc2nc(N(C)C)cc(C(C)(C)C)n2)o1,-8,-4
Cc1ccc(S(=O)(=O)N(Cc2ccc(Cl)cc2)c2ccccc2C(=O)N2CCOCC2)cc1,5,10
COc1ccc(C2CCCCN2C(=O)C2=CC(=O)CC(C)(C)O2)cc1 (stereo not drawn),4,6
CC(=O)N1CCCc2cc(S(=O)(=O)Nc3cc(F)cc(F)c3)ccc21,0,-1
O=C(NC1CCN(S(=O)(=O)c2ccccc2F)CC1)C1CCC1,3,1
Cc1noc(C)c1CSCC(=O)n1ccccc1=NC(C)C,7,5
C=CCN1C(=O)NC(c2ccccc2F)C2=C1CN(Cc1ccco1)C2=O (stereo not drawn),-3,5
CN(Cc1nc2ccc(F)cc2[nH]1)C1CCN(C(=O)c2ccccc2)CC1,8,6
Cc1c(C(=O)N2CCC(n3c(=O)oc4ccc(F)cc43)CC2)oc2ccccc12,24,18
COc1ccc(S(=O)(=O)Oc2ccc(CN(CCN(C)C)C(=O)CC(C)C)cc2)cc1,4,5
CC(=O)NCCc1ccc(O)c(O)c1,88*,71*
CCn1c(=O)c(C(=O)NCCCOC)nn(-c2ccccc2F)c1=O,1,14
c1ccc(COC2CCCN(c3nc4nonc4nc3N3CCCC3)C2)nc1 (stereo not drawn),5,5
CCCOc1cc(Nc2ccc(NC(=O)Nc3cccc(OC)c3)cc2)nc(C)n1,13,12
CCCc1cc(NC(C)C)n2c(nc3ccccc32)c1C#N,2,3
Cc1cc(C)n(-c2ccc(C(C)NC(=O)C3(C#N)CCCC3)cc2)n1 (stereo not drawn),-22,-24
CN1CCN(C(c2ccco2)C2Sc3nc(-c4ccco4)nn3C2=O)CC1 (stereo not drawn),2,2
COc1ccc2c(c1)OCC(c1nc(CN3CCOC(C)(C)C3)no1)C2 (stereo not drawn),-4,-5
COCCNC(=O)CNS(=O)(=O)c1cc(Br)ccc1Br,2,7
Cc1nc(CN(C)Cc2cc(-c3ccccc3)no2)co1,3,2
CCc1cn[nH]c1C1CCN(Cc2cc(Cn3cncn3)c(C)cc2C)CC1,21,9
C=CCn1cnc2c1c(=O)[nH]c(=O)n2C,0,4
CCOc1ccccc1CN1CCNC(=O)C1CC(=O)NCc1ccc(C)s1 (stereo not drawn),18,8
CC(NC(=O)c1cccc2c1OC(C)C2C)c1ccc(S(C)(=O)=O)cc1 (stereo not drawn),18,14
COCCn1c(=O)c2c(nc3n(-c4ccccc4F)c(C)c(C)n23)n(C)c1=O,13,6
CCC(Nc1ccc(Oc2ccc(Cl)cn2)cc1)C(N)=O (stereo not drawn),0,1
Cc1ccc2nc(C)c(C(=O)NCCCOc3cccnc3)cc2c1,1,-4
O=C(c1cc(-c2ccc(O)cc2)n[nH]1)N1CCC2(CCCO2)CC1,7,5
Cc1ccc(S(=O)(=O)N2CCC(C(=O)NC(C)c3ccc4ccccc4c3)CC2)c(C)c1 (stereo not drawn),2,-3
COc1cc(NC(=O)c2cnn3c(-c4ccccc4)cc(-c4ccccc4)nc23)c(OC)cc1Cl,9,10
CCCN(C)c1nc(SCc2cccc(C(=O)Nc3ccc(F)cc3)c2)nc(C)c1C,0,2
O=C(CCN1C(=O)C2CCCCC2C1=O)Nc1ccc(F)c(-c2nnc3n2CCCCC3)c1 (stereo not drawn),-2,-3
Cn1ccnc1CN(C(=O)c1ccc(C#CC(C)(C)O)o1)C1CC1,8,3
Cc1ccccc1OCCn1c(=S)[nH]c2ccccc21,-2,3
CCOC(=O)C1(CCOc2ccccc2)CCN(Cc2ccc(OCC)c(CO)c2)CC1,1,14
# New compounds follow:
SMILES,NPYLR7 ag,NPYLR7 ag max-min
Cc1nc2c(C)cccn2c(=O)c1NC(=O)c1ccccc1F,4,2
O=C(NCC1CNCCOC1)NC1CCCCC1 (stereo not drawn),3,0
COc1ccc(C(=O)N(Cc2cccc(F)c2)Cc2cc(NC(=O)c3cccs3)ccc2N(C)C)cc1,-13,-12
CCCc1oncc1C(=O)N1CCC2(CN(C)C(=O)O2)C1 (stereo not drawn),2,-1
CCOC(=O)C1CCCN(C(c2ccco2)C2Sc3nc(CC)nn3C2=O)C1 (stereo not drawn),-1,6
COC(=O)c1ccc2c(c1)CC(CNC(=O)Cc1ccc(OC)cc1)O2 (stereo not drawn),21,29
Cc1cc(C(=O)NCc2ccc3[nH]c(-c4ccc(F)cc4)c(C)c3c2)on1,10,8
Cc1nc(-c2ccccc2NC(=O)c2ccc(Br)cc2C)n[nH]1,4,3
Cc1ccc(S(=O)(=O)Nc2ccc(-c3cn4ccc(C)nc4n3)cc2)c(C)c1,0,-2
Cn1c(=O)c2c(nc(CN3CCN(c4ccc(F)cc4)CC3)n2CCCO)n(C)c1=O,7,6
Oc1ccc(C2=NNC(c3ccc(O)cc3)=NN2)cc1,2,1
O=C(NCCCN1CCOCC1)C(=O)NC1CC1,10,4

# Compounds from the list above that have a thiophene ring, fused or not (4):
SMILES,NPYLR7 ag,NPYLR7 ag max-min
C=CCn1c(C)cc(C(=O)CSc2ncnc3sc(C)c(C)c23)c1C,3,-1
O=C(CCN1CCN(Cc2ccc(Br)s2)CC1)Nc1ccc(F)c(F)c1,3,13
CCOc1ccccc1CN1CCNC(=O)C1CC(=O)NCc1ccc(C)s1 (stereo not drawn),18,8
COc1ccc(C(=O)N(Cc2cccc(F)c2)Cc2cc(NC(=O)c3cccs3)ccc2N(C)C)cc1,-13,-12

# Some of the entries so far, with tabs.
SMILES	NPYLR7 ag	NPYLR7 ag max-min
COc1ccc(C(=O)N(Cc2cccc(F)c2)Cc2cc(NC(=O)c3cccs3)ccc2N(C)C)cc1	-13	-12
CCCc1oncc1C(=O)N1CCC2(CN(C)C(=O)O2)C1 (stereo not drawn)	2	-1
CCOC(=O)C1CCCN(C(c2ccco2)C2Sc3nc(CC)nn3C2=O)C1 (stereo not drawn)	-1	6
COC(=O)c1ccc2c(c1)CC(CNC(=O)Cc1ccc(OC)cc1)O2 (stereo not drawn)	21	29
Cc1cc(C(=O)NCc2ccc3[nH]c(-c4ccc(F)cc4)c(C)c3c2)on1	10	8
Cc1nc(-c2ccccc2NC(=O)c2ccc(Br)cc2C)n[nH]1	4	3

# Next part
SMILES,NPYLR7 ag,NPYLR7 ag max-min
CCNC(=O)c1cc(N2CCC(c3ccc(OC)cc3)C2)ccn1 (stereo not drawn),4,2
Cc1cc(CC(C)NC(=O)c2ccccc2-n2cccn2)n[nH]1 (stereo not drawn),1,-1
CCn1c(-c2ccncc2)nn(CN(C)Cc2ccc(C(F)(F)F)cc2)c1=S,6,4
Cc1ccc(Cc2nsc(N(CC(=O)N3CC4(C)CC3CC(C)(C)C4)Cc3ccccc3)n2)cc1 (stereo not drawn),-1,4
COC(=O)CC1C(=O)NCCN1CCOc1ccccc1Cl (stereo not drawn),2,1
CC(C)(C)OC(=O)N1CCCC(C(=O)Nc2cccc3cccnc23)C1 (stereo not drawn),5,1
CCC(=O)c1ccc(OCC(=O)Nc2ccc(N3CCCC3)nc2)cc1,15,3
O=C(NC1C[C@H]1c1ccccc1)N1CCN(C(c2ccccc2)c2ccc(Cl)cc2)CC1 (stereo partly drawn),0,1
CCOc1ccc(C(=O)Nc2ccc(-c3nc4ccc(C)cc4s3)cc2)cc1[N+](=O)[O-],10,8
Cc1c(N(C)S(=O)(=O)c2ccc(Cl)c(C(=O)O)c2)c(=O)n(-c2ccccc2)n1C,0,-1
Cc1cccc(N2CCN(c3ccc4nnc(C5CC5)n4n3)CC2)c1C,0,-1
Cn1c(NCC2CC2)nc2cnc(Nc3ccc(C(F)(F)F)cc3)cc21,11,1
C=CCNC(=O)NC(=O)COC(=O)C=Cc1ccco1,8,4
CC12CC3CC(C)(C1)CC(C(=O)NCCCc1ccncc1)(C3)C2,0,-6
O=C1c2nc(-c3cccc(F)c3)ccc2CN1C1(C(=O)NCc2ccccc2)CC1,-3,-6
Cc1cc(-c2cccc(S(N)(=O)=O)c2)nc2cc3c(cc12)OCO3,1,-23
CCCCOc1ccc(C(=O)NCCn2c(C)cc3ccccc32)cc1,1,-4
CCOc1cc(/C=N\N=C(N)N)ccc1OC(=O)c1ccc(C)cc1,-8,-14
CCCCNC(=O)c1ccc2nc(CC)c(N(C)Cc3ccc(OC)cc3)n2c1,-17,-18
Cc1cc(N(C)CC2CCN(CCO)CC2)nc(-c2ccccc2)n1,7,5
CC(=O)NCc1ccc(-c2csc(NC(=O)C(C)S(C)(=O)=O)n2)cc1 (stereo not drawn),8,4
Cc1c(C)n2c3c(=O)n(CC(=O)OCc4ccccc4)c(=O)n(C)c3nc2n1C(C)c1ccccc1 (stereo not drawn),7,12
CCCCN(CC(=O)Nc1cc(C(C)(C)C)nn1-c1ccc(C)cc1C)C(=O)NCc1ccccc1,-3,-1
Cc1nc(-c2ccccc2)c(C(=O)N(C)Cc2snnc2C)s1,1,0
N#CC1C(=N)Oc2n[nH]c(-c3ccccc3)c2C12C(=O)Nc1ccc(F)cc12 (stereo not drawn),-3,-10
